# Mtb bLac sens = beta-lactam sensitization of Mtb H37Rv. M. tuberculosis H37Rv growth with meropenem, percent inhibition; hits of this screen are not shown here. inhibition, % at 25 µM. hit rate 0.27% among 330,000;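 active = about 74% or more and at least 40 points above the plate without the antibiotic, then above 30% in a dose series; inconclusive = first-round hits that could not be retested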;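 note: growth measured after seven days incubation then overnight dye step; 0% = bacteria only wells and 100% = bacteria with antibiotic; twin plates without the antibiotic show which effects depend on it; some results filed as inactive read as strong as hits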
# Mtb growth = M. tuberculosis H37Rv growth inhibitors, H37Rv strain (AID 1626); inhibition, % at 10 µM; hits with a dose series show IC50 in µM; hit rate 0.95% among 220,000; M. tuberculosis H37Rv growth inhibition; higher % means a stronger effect;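 active = confirmed in a dose series; inconclusive = inhibition above 80% but not taken into the dose series; inactive = below 80% or under 30% at every dose of the series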;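 note: bacteria incubated seven days before Alamar blue readout; 0% = bacteria only wells and 100% = bacteria with antibiotic wells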
# RecA splice inh = inhibitors of M. tuberculosis RecA intein splicing. hit rate 0.75% among 290,000. cell-free RecA intein splicing, fluorescence. inhibition, %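 (about 9 µM by stock and volumes)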. AID 2221. P9WHJ3; in the data active = inhibition above about 30%; inconclusive = no clear call, values can overlap the other calls;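 note: 0% = vehicle wells and 100% = reference inhibitor control wells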
# Target sequence (P9WHJ3 whole entry, looked up, canonical isoform): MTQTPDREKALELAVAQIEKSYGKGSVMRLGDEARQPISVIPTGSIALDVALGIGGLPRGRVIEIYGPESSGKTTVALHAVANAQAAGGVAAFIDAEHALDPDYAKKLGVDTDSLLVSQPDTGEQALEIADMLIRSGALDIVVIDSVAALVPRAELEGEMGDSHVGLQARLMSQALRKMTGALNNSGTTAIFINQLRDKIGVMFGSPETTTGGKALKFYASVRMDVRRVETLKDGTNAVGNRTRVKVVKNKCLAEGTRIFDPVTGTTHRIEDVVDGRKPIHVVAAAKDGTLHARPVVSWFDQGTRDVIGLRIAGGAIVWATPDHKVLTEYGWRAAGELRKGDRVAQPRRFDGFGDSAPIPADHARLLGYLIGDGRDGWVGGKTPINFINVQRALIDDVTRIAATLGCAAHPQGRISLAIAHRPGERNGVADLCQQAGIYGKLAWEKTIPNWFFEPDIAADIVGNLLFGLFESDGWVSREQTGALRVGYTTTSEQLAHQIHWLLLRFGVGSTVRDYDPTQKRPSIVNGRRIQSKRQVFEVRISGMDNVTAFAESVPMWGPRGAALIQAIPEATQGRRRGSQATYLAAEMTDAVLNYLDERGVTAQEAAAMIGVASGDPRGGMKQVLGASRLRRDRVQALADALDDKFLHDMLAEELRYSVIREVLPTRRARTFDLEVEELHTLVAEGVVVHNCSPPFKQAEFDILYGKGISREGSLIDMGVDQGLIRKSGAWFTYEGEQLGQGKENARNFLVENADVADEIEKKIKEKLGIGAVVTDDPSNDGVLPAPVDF
# YopH PTP inh = YopH (Yersinia) phosphatase inhibition; hit rate 0.16% among 140,000; fluorescence Ex485/Em525; inhibition, %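 (about 10 µM by stock and volumes)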; AID 898;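 active = inhibition of 50% or more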;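 note: controls were vehicle for no effect and minimum signal wells for full effect; inactives centre near -20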
# Arbovirus anti = antivirals against arbovirus infection | arbovirus infection cell-based antiviral screen | inhibition, % at 10 µM | hit rate 0.37% among 200,000 | AID 1251;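 active = inhibition from about 30%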;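 note: bluetongue infection of BSR cells; cell survival read as ATP light after 72 h; 0% = infected wells without compound and 100% = uninfected wells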
# Arbovirus anti repeat = also measured in Arbovirus anti; calls as there; inhibition, %; measured here: 10K subset replicate screen; many hits read low in the repeat;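 first of two repeat runs on a subset; 0% = infected and 100% = uninfected wells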
# Numbers without * were called inactive; ? = inconclusive; / = not tested or not shown. Not all compounds are listed (hit frequency here may not be typical).
SMILES,Mtb bLac sens,Mtb growth,RecA splice inh,YopH PTP inh,Arbovirus anti,others
CSc1ccccc1NC(=O)COC(=O)Cc1cccs1,4.0,3.2%,0.1,/,-0.5,
COC(CN(C(=O)CCl)C(C(=O)NC1CCCCC1)c1ccccc1C)OC (stereo not drawn),?,10.1%,24.6,-17.9,15.2,
CCOC(=O)Cc1csc(NC(=O)CN2C(=O)c3ccccc3S2(=O)=O)n1,-4.0,-2.7%,/,-23.5,4.6,Arbovirus anti repeat=3.8
COC(=O)[C@H](CC(C)C)NC(=O)Nc1ccc(F)cc1,-5.4,-2.1%,-1.3,/,/,
Cc1cccc(NC(=O)CCn2ccnc2C)c1,4.5,5.9%,0.2,-25.2,-2.2,
NC(=O)/C(=C\c1ccccc1)NC(=O)c1ccc(NC(=O)c2ccccc2)cc1,-1.9,-2.9%,-0.2,/,/,
COc1ccc(CCN(Cc2cc3cc(C)ccc3[nH]c2=O)C(=O)N2CCCC2)cc1OC,-7.0,-1.4%,-2.1,-7.0,0.3,
CC1(OC(=O)C2CCCC2)C(=O)C=C2C=C(c3ccsc3)N(Cc3ccco3)C=C2C1=O (stereo not drawn),8.7,-5.2%,-2.1,/,/,
N/N=C1\CCCc2nonc21,1.5,-3.2%,-1.9,/,3.3,
Cc1cccc(NC(=O)c2cccc(C(F)(F)F)c2)c1,13.0,4.8%,0.3,/,0.4,

# Of the compounds above, 4 have nitrogen in an aromatic ring.
SMILES,Mtb bLac sens,Mtb growth,RecA splice inh,YopH PTP inh,Arbovirus anti,others
CCOC(=O)Cc1csc(NC(=O)CN2C(=O)c3ccccc3S2(=O)=O)n1,-4.0,-2.7%,/,-23.5,4.6,Arbovirus anti repeat=3.8
Cc1cccc(NC(=O)CCn2ccnc2C)c1,4.5,5.9%,0.2,-25.2,-2.2,
COc1ccc(CCN(Cc2cc3cc(C)ccc3[nH]c2=O)C(=O)N2CCCC2)cc1OC,-7.0,-1.4%,-2.1,-7.0,0.3,
N/N=C1\CCCc2nonc21,1.5,-3.2%,-1.9,/,3.3,

# More structures.
SMILES,Mtb bLac sens,Mtb growth,RecA splice inh,YopH PTP inh,Arbovirus anti,others
COc1ccccc1CN1C[C@@H]2C[C@@H](c3ccc(C)cc3)N3CCC[C@@]23C1=O,-12.2,0.4%,2.8,/,-5.0,
Cc1nn(CC(=O)NCCN2CCOCC2)c(=O)c2cc3sccc3n12,10.4,/,-0.9,/,/,
Cc1ccc(S(=O)(=O)NCCSc2nnc(N)s2)cc1,-1.9,14.5%,0.5,-25.3,-0.8,
COc1cccc(COC(=O)c2sc3nc4n(c(=O)c3c2C)CCC4)c1OC,80.5,/,-2.6,/,/,
O=C(N/N=C/c1cccc(O)c1)c1ccccc1O,-0.9,-7.6%,-5.9,/,/,
COc1ccc(NC(=S)NNc2ccc([N+](=O)[O-])cc2S(=O)(=O)Nc2ccc(C)cc2C)cc1,13.1,77.3%,-2.2,-15.9,-16.5,
CCOC(=O)CNC(=O)Cn1cnc2ccc(S(=O)(=O)N3CCC(C)CC3)cc2c1=O,6.5,-2.3%,4.7,-48.5,-0.2,
Cc1nc2sccn2c(=O)c1S(=O)(=O)NCC1CCN(Cc2ccccc2Cl)CC1,-1.9,/,2.9,/,/,
Cc1nn(CC(=O)NCCCN2CCN(C)CC2)c(=O)c2cc(-c3ccccc3)nn12,-3.5,/,-0.8,/,/,
CC(C)(C)N1C(=O)[C@H]2[C@@H](c3ccc(Br)cc3)N3C(=O)N(c4ccccc4)C(=O)[C@@]3(C)[C@H]2C1=O,-4.2,/,1.2,/,/,
COc1ccc(OCC(=O)NCc2cccnc2)cc1,-0.5,/,0.8,-27.4,2.3,
CC(C)c1nnc(NC(=O)C2CC(=O)N(CCc3ccc(F)cc3)C2)s1 (stereo not drawn),5.5,/,-0.3,/,/,
Cc1nn(C)c(C)c1NS(=O)(=O)c1ccc(OC(F)(F)F)cc1,-1.6,/,0.7,/,/,
COc1ccc(CNC(=O)Cc2csc(Nc3nc(=S)[nH]c4ccccc34)n2)cc1,79.6,/,-10.7,-3.4,-2.7,
O=C1CC(N2CC=C(c3ccc(F)cc3)CC2)C(=O)N1c1ccc(F)cc1 (stereo not drawn),-12.1,-3.8%,-0.7,3.7,12.9,
Cc1ccc(C)c(NC(=S)NCc2cccn2C)c1,/,/,1.3,-21.2,6.2,
C/C(=N\N1CCN(C2c3ccccc3-c3ccccc32)CC1)c1cccnc1,-1.8,-5.0%,4.1,-39.3,-21.1,
C#CCSc1nnc(-c2ccccc2)c(=O)[nH]1,4.9,-4.1%,0.1,-21.4,13.8,
COc1ccc(C(N)=O)cc1NC(=O)CC(O)(C(F)(F)F)C(F)(F)F,1.2,-2.1%,-2.1,-22.2,5.1,
COc1ccc(C2=NOC(COC(=O)c3ccc4ccccc4n3)C2)cc1 (stereo not drawn),97.5,50.1%,-4.4,-22.3,-0.6,
O=C(NC1CCCc2ccccc21)c1cccc(Br)c1 (stereo not drawn),12.1,14.1%,1.1,-18.3,-1.5,
COc1ccc(CCn2c(N3CCN(C)CC3)nc3c2c(=O)[nH]c(=O)n3C)cc1,15.1,1.5%,12.6,-11.0,2.8,
CN(C)c1oc(-c2ccco2)nc1C#N,-5.6,2.7%,-0.1,-41.8,2.4,
Cc1ccc(S(=O)(=O)N2N=C3CCCCC3C2(O)C(F)(F)F)cc1 (stereo not drawn),-7.4,6.6%,2.1,/,6.9,
CCOc1ccc(CCN2C(=O)c3cccnc3C2=O)cc1OCC,-7.6,-1.9%,2.0,/,1.9,
Cc1cc(C(=O)Nc2ccc(S(=O)(=O)Nc3onc(C)c3C)cc2)c(C)o1,6.1,-3.1%,3.8,-7.0,3.6,
CC(C)NC(=O)CSc1nc2[nH]ncc2c(=O)[nH]1,-13.5,-3.0%,-0.3,/,4.3,
CCCCCNC(=O)c1ccc2c(=O)n(CC3CCCO3)c(=S)[nH]c2c1 (stereo not drawn),1.4,9.2%,0.5,/,0.1,
O=C(CSCCO)Nc1ccccc1,-7.4,-13.4%,-6.2,-40.0,3.5,
COc1cccc(CC(=O)OCC(=O)N(C)CC(=O)Nc2ccc(F)cc2)c1,-8.3,/,1.4,/,/,

# For reference, 2 of the compounds above.
SMILES,Mtb bLac sens,Mtb growth,RecA splice inh,YopH PTP inh,Arbovirus anti,others
O=C(CSCCO)Nc1ccccc1,-7.4,-13.4%,-6.2,-40.0,3.5,
COc1cccc(CC(=O)OCC(=O)N(C)CC(=O)Nc2ccc(F)cc2)c1,-8.3,/,1.4,/,/,

# Carrying on:
SMILES,Mtb bLac sens,Mtb growth,RecA splice inh,YopH PTP inh,Arbovirus anti,others
O=C(c1ccc(NS(=O)(=O)c2ccccc2)cc1)N1CCOCC1,-1.7,/,-1.7,/,/,
CCOC(=O)C1=C(c2ccccc2)NC(=O)NC1c1cc(OC)c(OC)cc1OC (stereo not drawn),-8.9,/,-1.2,/,/,
C[C@H](NC(=O)c1nc[nH]c1C(=O)N1CCNCC1)C(=O)OC(C)(C)C,3.7,/,-1.9,/,/,
Cn1c(=O)c2c(nc(N/N=C/c3cccs3)n2Cc2ccc(Br)cc2)n(C)c1=O,5.8,79.5%,-9.6,-9.9,-21.9,
COc1cc(C(=O)Oc2ccc3c(c2)OCC3=O)cc(OC)c1OC,54.7,-6.0%,5.1,4.2,7.9,
CCNc1nc2ccccc2[nH]1,-3.2,7.7%,1.3,-15.3,-3.1,
CCCCc1cc(=O)oc2cc(C)cc(OCC(=O)N3CCC(C(=O)O)CC3)c12,-5.8,/,2.5,/,/,
CN(C)C(=S)SCC(=O)NCc1ccc(F)cc1,-0.6,1.7%,1.4,/,4.2,
O=Cc1ccc(-c2ccc(Cl)cc2Cl)[nH]1,98.1,8.46µM*,-1.5,/,8.5,
CC1=NN(C(=O)c2ccccc2Cl)C(O)(c2ccccc2)C1 (stereo not drawn),0.8,/,1.3,/,/,
FC(F)(F)c1cccc(NC(=S)N2CCN(c3ccccc3)CC2)c1,-3.2,-3.1%,2.5,-14.9,7.5,
CCOc1ccccc1Nc1nnc(SCC(=O)Nc2nc(-c3ccc(OC)cc3)cs2)s1,-2.2,4.8%,-0.6,/,8.9,
CCC(=O)Nc1ccc(C(=O)N2CCN(C(=O)c3ccco3)CC2)cc1,0.4,4.1%,1.1,/,0.0,
O=S(=O)(NCCSc1ccccc1)c1ccc(F)cc1,2.0,1.3%,1.6,3.1,3.5,
CC(C)CCNC(=O)CCS(=O)(=O)c1cccc2nonc12,2.0,-1.1%,-0.8,-24.6,9.5,Arbovirus anti repeat=1.3
O=S(=O)(CC(CN1CCOCC1)N1CCOCC1)c1ccccc1 (stereo not drawn),6.1,5.9%,-0.4,/,4.0,
O=CNC(=O)c1ccccc1C(=O)O,0.1,6.2%,-0.9,-11.6,0.9,
O=C(C1CCCN(S(=O)(=O)c2ccc(F)cc2)C1)N1CCCCCC1 (stereo not drawn),-18.2,/,-0.7,/,/,
Cc1ccc(S(=O)(=O)N2CCC(C(=O)Nc3ccccc3N3CCCCC3)CC2)cc1C,-8.4,/,1.6,/,/,
O=C(Nc1cccc(F)c1)Nc1ccnn1C1CCN(C(=O)c2ccccn2)CC1,2.1,/,-0.8,/,/,
O=C1NC[C@H](CC2CCCCC2)N(CCc2cccc(F)c2)C1=O,-3.0,/,1.7,/,/,
COc1ccc(Cl)cc1NC(=O)c1nnn(CC(=O)Nc2ccc(C)c(C)c2)c1N,3.9,/,-0.1,/,/,
O=C(CCc1ccccc1)N1N=C(c2ccncc2)CC1(O)C(F)(F)F (stereo not drawn),-10.0,-8.0%,0.2,/,-0.1,
C#CCOCCOCCOCCNc1nc(N2CCN(C(=O)[C@H](CCC(=O)O)n3cc(C(N)CC(C)C)nn3)CC2)nc(N2CCN(C(=O)[C@H](Cc3cc4ccccc4[nH]3)n3cc(C(N)CC(C)C)nn3)CC2)n1 (stereo partly drawn),-7.3,/,-3.9,/,0.0,
O=C(COc1ccc(Cl)cc1)NCc1nnc(SCC(=O)NC2CCCC2)o1,-6.9,/,-0.5,12.3,1.1,
CN(C)CCn1c(=S)[nH]c2ccccc2c1=O,-4.0,1.6%,-5.8,-8.9,8.2,
Cc1cccc(C2NC(c3cccc(C)c3)C([N+](=O)[O-])C(C)(C)C2[N+](=O)[O-])c1 (stereo not drawn),-9.6,7.7%,3.0,-13.7,28.0,
CSc1ccc(/C=C(/NC(=O)c2ccco2)C(=O)NCc2ccco2)cc1,-0.2,/,-1.3,/,/,
CC(C)NC(=O)C1CCN(C2CCN(C(=O)c3scc4c3CCCC4)CC2)CC1,-1.1,3.2%,/,/,0.1,
c1ccc(CNn2nnnc2-c2ccccc2)cc1,-2.2,6.4%,1.9,-7.1,11.0,

# Pulled one by one from the list above (7):
SMILES,Mtb bLac sens,Mtb growth,RecA splice inh,YopH PTP inh,Arbovirus anti,others
Cc1cccc(C2NC(c3cccc(C)c3)C([N+](=O)[O-])C(C)(C)C2[N+](=O)[O-])c1 (stereo not drawn),-9.6,7.7%,3.0,-13.7,28.0,
COc1ccc(Cl)cc1NC(=O)c1nnn(CC(=O)Nc2ccc(C)c(C)c2)c1N,3.9,/,-0.1,/,/,
CC(C)NC(=O)C1CCN(C2CCN(C(=O)c3scc4c3CCCC4)CC2)CC1,-1.1,3.2%,/,/,0.1,
c1ccc(CNn2nnnc2-c2ccccc2)cc1,-2.2,6.4%,1.9,-7.1,11.0,
O=C(COc1ccc(Cl)cc1)NCc1nnc(SCC(=O)NC2CCCC2)o1,-6.9,/,-0.5,12.3,1.1,
CN(C)CCn1c(=S)[nH]c2ccccc2c1=O,-4.0,1.6%,-5.8,-8.9,8.2,
O=C1NC[C@H](CC2CCCCC2)N(CCc2cccc(F)c2)C1=O,-3.0,/,1.7,/,/,

# More records.
SMILES,Mtb bLac sens,Mtb growth,RecA splice inh,YopH PTP inh,Arbovirus anti,others
CN1CCc2nc(SCc3cccc(Br)c3)c(C#N)cc2C1,90.0,-7.3%,-20.1,/,/,
COc1ccccc1CNS(=O)(=O)c1ccc(-c2cc(C)no2)cc1,-0.5,/,5.7,/,/,
CNC(=O)NC(=O)CSc1nc2ccccc2n1CCOC,-12.8,-4.0%,-1.9,-10.6,7.0,
CCOC(=O)Nc1nnc(-c2ccccc2OC)s1,-13.0,-0.6%,-3.0,-11.6,0.9,
COc1ccc(C)cc1S(=O)(=O)N1CCN(C(=O)c2ncoc2-c2cccc(C)c2)CC1,0.2,/,7.7,/,/,
O=c1ccc(/C=C/c2ccccc2)nn1Cc1ccc(F)cc1,-1.9,/,6.9,/,-6.4,
O=c1[nH]c(C2CCCN(S(=O)(=O)Cc3ccccc3)C2)nc2c1nnn2Cc1cccc(Cl)c1 (stereo not drawn),-9.9,/,-1.2,/,/,
